High-throughput results as filed in PubChem.
Anaer choline gr: blocks anaerobic gram-negative growth on choline; AID 1963822; calls only; Gram-negative bacterium anaerobic choline minimal medium, absorbance growth; hits give low values; many inactives read as strong as hits in the columns shown; actives 0.2% (n = 55,000);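 active = growth z-score on choline under -2 at 7 or 20 h with little or no fall on glycerol, limits in tiers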;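 also: stock transfer was 300 nL into about 50 µL; the organism is E. coli; final concentration not given here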
Anaer choline gr early: recorded beside Anaer choline gr, whose call it bears; z-score; measured here: choline growth z-score, timepoint 1;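 score of optical density at 7 h as mean of two plates; lower means less growth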
An asterisk follows results filed as active; i = inactive; + = active, no number; & = joins results of further samples; ! = a repeat was not active. The list is partial; rates above refer to the full screens.

Anaer choline gr	Anaer choline gr early	canonical_smiles
i	0.71	Cc1ccc(NC(=O)c2ccc3nncn3c2)cc1C
i	0.83	COc1ccc(C2=CC(c3cccc(OC)c3)n3ncc(C(=O)Nc4ccccc4)c3N2)cc1 (stereo not given)
i	-0.05	Cn1c(=O)c2c(SCC(=O)NCC3CCCO3)nc(-c3cccc(F)c3)nc2n(C)c1=O (stereo not given)
i	-0.82	O=C(NCCCN1CCN(c2ccccc2F)CC1)c1nnc(-c2ccccc2)o1
i	0.92	Cc1ccc2nc(Nc3ccc4[nH]c(=O)[nH]c4c3)c(-n3nc(C)cc3C)nc2c1
i	0.23	O=C(C1CC1)N1CCN(Cc2noc(-c3ccccc3)n2)CC1
i	0.68	Cn1nnc2c(Nc3ccc(Cl)c(Cl)c3)ncnc21
i	-0.03	Cc1cccc(CSc2nc3ccncc3n2CC(=O)N2CC(C)CC(C)C2)c1 (stereo not given)
i	1.7	COc1cccc(-c2csc(Cc3nc(-c4ccccc4Cl)no3)n2)c1
i	0.01	CC(C)(CO)NCc1ccc(-c2ccccc2F)o1
i	-0.63	COc1ccc(NC(=O)CN(C)S(=O)(=O)c2ccc3c(c2)CCCC(=O)N3)cc1OC
i	-0.99	Cc1nc(-c2cc(S(=O)(=O)N3CCC(C(=O)N4CCN(c5ccccn5)CC4)CC3)c(C)s2)no1
i	-0.58	O=C(Nc1nccs1)C1=Cc2cc(Cl)ccc2OC=C1
i	-1.4	COc1ccc2ncc(S(=O)(=O)c3ccccc3)c(N3CCCC(C)C3)c2c1 (stereo not given)
i	1.4	C=CCN(C(=O)C(C)Oc1cc(C(F)(F)F)c2c(C)nn(C)c2n1)c1ccccc1 (stereo not given)
i	0.31	NC(=O)C1CCN(C(=O)c2cc(-c3ccccc3Cl)on2)CC1
i	1.3	Cc1cc(NC2CCCC2)n2ncc(-c3ccc(F)cc3)c2n1
i	1.2	Cc1ccc(NC(=O)c2sc(C)nc2C)c(C)c1
i	0.91	CC(C)c1cc(C2CCCN2C(=O)c2cc(-c3ccc4c(c3)OCO4)on2)on1 (stereo not given)
i	-1.4	C=CCSc1nc2c(cnn2CCO)c(=O)[nH]1
i	0.41	CCC(=O)Nc1cccc(-c2noc(C3CCCN(C(=O)c4ccc(Cl)cc4)C3)n2)c1 (stereo not given)
i	-0.17	CC(=O)Nc1cc(C(=O)N2CCN(S(=O)(=O)c3ccc4c(c3)oc(=O)n4C)CC2)ccc1C
i	-1.4	CCN1C(=O)c2cc(NC(C)=O)ccc2Oc2ccccc21
i	0.25	CN(c1ccc2sc(C(=O)N3CCCC3)cc2c1)S(C)(=O)=O
i	-0.43	c1cncc(-c2nnc3sc(-c4cc5ccccc5[nH]4)nn23)c1

Arranged by number of heavy atoms (ascending): five of the compounds above
Anaer choline gr	Anaer choline gr early	canonical_smiles
i	0.31	NC(=O)C1CCN(C(=O)c2cc(-c3ccccc3Cl)on2)CC1
i	-1.4	COc1ccc2ncc(S(=O)(=O)c3ccccc3)c(N3CCCC(C)C3)c2c1 (stereo not given)
i	0.91	CC(C)c1cc(C2CCCN2C(=O)c2cc(-c3ccc4c(c3)OCO4)on2)on1 (stereo not given)
i	1.4	C=CCN(C(=O)C(C)Oc1cc(C(F)(F)F)c2c(C)nn(C)c2n1)c1ccccc1 (stereo not given)
i	-0.17	CC(=O)Nc1cc(C(=O)N2CCN(S(=O)(=O)c3ccc4c(c3)oc(=O)n4C)CC2)ccc1C

Other entries:
Anaer choline gr	Anaer choline gr early	canonical_smiles
i	0.18	NS(=O)(=O)c1ccc(CCNS(=O)(=O)c2ccc3[nH]c(=O)ccc3c2)cc1
i	-0.44	Cc1cccc(C(=O)N2CCN(c3nc4nc(C)ccc4o3)CC2)c1
i	0.95	Cc1ccc(NC(=O)n2ncc3c(C)cccc32)cc1
i	1.1	O=C(c1ccccc1F)N1CCC(c2noc(-c3ccc(S(=O)(=O)N4CCCC4)cc3)n2)CC1
i	2.2	O=C(c1ccc(F)c(F)c1)N1CCN(C(=O)c2cc3cc(Cl)ccc3[nH]2)CC1
i	1.1	C=CCn1c(=O)c2ccc(C(=O)NC(C)C)cc2n2c(=O)n(CC(=O)NCc3ccc(C)cc3)nc12
i	-0.68	COc1ccc(Cl)cc1NC(=O)Cc1noc2ccccc12
i	-0.57	COc1ccc(C(=O)NCC(c2ccc(N(C)C)cc2)N(C)C)cc1 (stereo not given)
i	-1.2	Cn1ccc2c(SCC(=O)N3CCN(c4ccc(F)cc4)CC3)nccc21
i	0.88	Cc1cc(C)n(-c2nc3cc(Cl)ccc3nc2NC2CCCC2)n1
i	0.4	CCCCCCCCCCCCC/C=C/[C@@H](O)[C@@H](N)CO
i	0.49	CC(=O)Nc1ccc(S(=O)(=O)N2CCN(c3cccc(Cl)c3)CC2)cc1
i	-1.3	Cc1ccc(C(=O)NCCOc2ccc(-c3ccccc3)nn2)cc1C
i	-0.65	CC(C)(C)c1ccc(C(=O)N2CCN(Cc3cc(=O)n4nc(-c5ccccc5Cl)sc4n3)CC2)cc1
i	2.6	COc1ccc(C(=O)Nc2nnc(SCc3cc(=O)n4[nH]cnc4n3)s2)cc1
i	0.44	CCN1c2ccccc2C(=O)NC12CCN(C(=O)NCCc1ccccc1)CC2
i	0.37	O=C(NCCc1cscn1)[C@H]1CSCN1C(=O)c1ccc(Br)o1
i	0.51	COc1ccc(C2CC(=O)C3=C(C2)Nc2onc(C)c2C3c2cccc(C)c2)cc1OC (stereo not given)
i	1.1	O=C(NCC(c1ccccc1)c1c[nH]c2ccccc12)Nc1ccc(Cl)cc1 (stereo not given)
i	0.46&0.61	Cc1cccc(Nc2ccncc2S(=O)(=O)NC(=O)NC(C)C)c1
i	1.4	COc1ccc(Nc2nccc(NCCO)n2)cc1
i	0.42	O=C(c1cnc2ccc(F)cc2c1Nc1ccccc1Br)N1CCCCC1
i	1.4	COc1ccc(C2=NN(S(C)(=O)=O)C(c3cn(-c4ccccc4)nc3-c3ccccc3)C2)cc1 (stereo not given)
i	0.52	CC(C)NC(=O)c1n[nH]c2c1CCCCCC2
i	-1.1	CCCn1c(=O)sc2cc(NS(=O)(=O)c3ccc4c(c3)n(C)c(=O)n4C)ccc21
i	-2.3	Cn1c(=O)c2c(-c3ccc(Br)cc3)n3c(c2n(C)c1=O)C(c1ccc(O)c(O)c1)OCC3 (stereo not given)
i	0.17	CNC(=O)[C@@H](Cc1ccccc1)N(C)C(=O)[C@@H](Cc1ccc2ccccc2c1)N(C)C(=O)/C=C/CC(C)(C)N
i	0.89	Cc1nc(-c2csc(S(=O)(=O)Nc3cccc(Cl)c3)c2)no1
i	0.53	Cc1ccc2c(c1)c(=O)n(CC(C)C)c1nnc(SCc3ccc(Cl)cc3)n21
i	0.92	COc1ccc(CCNC(=O)CCc2nnc3n(Cc4ccccc4)c(=O)c4ccccc4n23)cc1OC
i	-0.21	CCc1c(C)nc2nc(-c3ccccc3)nn2c1NCc1ccc2c(c1)OCO2
i	0.94	COC(=O)CNC(=O)N1CCCC1c1ccc(F)cc1 (stereo not given)
i	1.5	Brc1ccccc1-c1noc(CSc2ccc(-c3ccc4c(c3)OCO4)nn2)n1
i	-0.04	CC(C)OCCCNC(=O)CNC(=O)C1(C)Cn2c(cc3ccccc32)C(=O)N1C (stereo not given)
i	-0.42	O=C(CSc1ncnc2nc(N3CCSCC3)sc12)NC1CCCC1
i	-0.34	Cc1ccccc1-c1nn2c(=O)cc(CN3CCN(C(=O)c4ccc(C(C)(C)C)cc4)CC3)nc2s1
i	1.3	Cc1cccc(-c2csc(-c3nc(-c4ccccc4)no3)c2-n2cccc2)c1
i	0.49	Cc1ccccc1Cn1c(C)c(C2CCN(S(=O)(=O)c3cnc[nH]3)CC2)c2ccccc21
i	-0.02	CC1CCc2[nH]nc(C(=O)NCC3CCCO3)c2C1 (stereo not given)
i	0.8	O=C(c1cnn2c(C(F)(F)F)cc(-c3ccccc3)nc12)N1CCN(c2ccccc2)CC1
i	0.22	O=C(CCc1nc2sc3c(c2c(=O)[nH]1)CCCC3)Nc1ccc(F)cc1F
i	-0.52	Cc1nn(-c2ccccc2)c2c1N(CCCC(=O)NCC1CCCO1)C(=O)CS2 (stereo not given)
i	1.2	CCSc1ncc2c(=O)n(CC(=O)Nc3ccccc3C(=O)OC)cnc2n1
i	0.12	Cc1cc(C)n2ncc(C(=O)NCCC3=CCCCC3)c2n1
i	-0.01	O=C(c1csc(C(=O)N2CCCC2)n1)N1CCSCC1
+!	-2.9*!	CN1CCC[C@@H]1CCO[C@](C)(c1ccccc1)c1ccc(Cl)cc1
i	0.33	O=C1CC2(CCN(C(=O)NCc3ccccc3)CC2)Oc2ccccc21
i	-1.8	CCOc1ccccc1NC(=O)NCCn1c(-c2ccc(F)cc2)nc2ccccc21
i	0.3	O=c1ccn(-c2cccc(F)c2)nc1-c1nc(-c2cccc(Cl)c2)no1
i	1.4	COc1ccccc1C(=O)Nc1ccc2nc(N3CCC(C)CC3)cc(C)c2c1

Fetched by compound from the list above, 3 records:
Anaer choline gr	Anaer choline gr early	canonical_smiles
i	0.22	O=C(CCc1nc2sc3c(c2c(=O)[nH]1)CCCC3)Nc1ccc(F)cc1F
i	0.92	COc1ccc(CCNC(=O)CCc2nnc3n(Cc4ccccc4)c(=O)c4ccccc4n23)cc1OC
+!	-2.9*!	CN1CCC[C@@H]1CCO[C@](C)(c1ccccc1)c1ccc(Cl)cc1

The listing picks up, repeating the five entries before the break.
Anaer choline gr	Anaer choline gr early	canonical_smiles
+!	-2.9*!	CN1CCC[C@@H]1CCO[C@](C)(c1ccccc1)c1ccc(Cl)cc1
i	0.33	O=C1CC2(CCN(C(=O)NCc3ccccc3)CC2)Oc2ccccc21
i	-1.8	CCOc1ccccc1NC(=O)NCCn1c(-c2ccc(F)cc2)nc2ccccc21
i	0.3	O=c1ccn(-c2cccc(F)c2)nc1-c1nc(-c2cccc(Cl)c2)no1
i	1.4	COc1ccccc1C(=O)Nc1ccc2nc(N3CCC(C)CC3)cc(C)c2c1
i	0.69	CCC(C)NC(=O)c1cccc(C2CCCN(C(=O)NC(C)C)C2)c1 (stereo not given)
i	0.15	Cc1ccc(-c2nc3ccccc3c3nnc(SCC(=O)NC(C)(C)C)n23)cc1
i	0.38	CCOc1cccc(C2c3cccn3-c3c(c(C)nn3-c3ccccc3)CN2C(=O)NCC(=O)OC)c1 (stereo not given)
i	-1.3	CN(Cc1ccccc1)C(=O)C1CCN(S(=O)(=O)c2ccc3c(c2)sc(=O)n3C)CC1
i	-1.6	O=C(Cn1c(=O)oc2ccccc21)NC1CCN(Cc2ccccc2)CC1
i	-0.91	O=S(=O)(c1ccccc1)N1CCC2(CC1)NCCN=C2NCc1ccc2c(c1)OCO2
i	-0.2	CCC1CCCCN1S(=O)(=O)c1cc(-c2cc(C)[nH]n2)sc1C (stereo not given)
i	1.2	Cc1nc2nc[nH]n2c(=O)c1NS(=O)(=O)c1ccc2c(c1)CCCC2
i	1.5	Cc1cc(N2CCN(c3ccc(Cl)cc3)CC2)n2ncnc2n1
i	-0.15	Cc1nc(Nc2ccc(NC(=O)C(C)C)cc2)cc(N2CCOCC2)n1
i	0.68	CCOc1ccccc1C1C2=C(CC(c3ccc(O)cc3)CC2=O)Nc2onc(C)c21 (stereo not given)
i	0.59	O=C(Cn1c(=O)oc2ccccc21)N1CCc2ccccc21
i	0.93	COc1cc(/C=C(\C#N)C(=O)Nc2nnc(C(F)(F)F)s2)ccc1OCc1ccc(C(F)(F)F)cc1C(F)(F)F
i	0.55	COc1ccc(NC(=O)c2nnc(CSCC(=O)NCCc3c[nH]c4ccc(C)cc34)s2)cc1
i	-1	COc1ccc(Oc2nc(N3CCOCC3)c(Cl)c3c2N(Cc2ccccc2)CCS3(=O)=O)cc1
i	-0.9	Clc1ccccc1CSc1nnc(-c2ccc(Br)cc2)o1
i	-1.7	O=c1cc(-c2ccccc2)[nH]c2nc3ccccc3n12
i	-1.2	O=C(CNS(=O)(=O)c1ccc2c(c1)CCN2C(=O)N1CCCC1)N1CCN(c2ccccc2)CC1
i	0.66	CC1CCN(S(=O)(=O)c2cc(C(=O)N3CCCCC3)n(C)c2)CC1
i	-0.47	COc1ccc(C2CC(=O)C3=C(C2)Nc2onc(C)c2C3c2cccc(Cl)c2)cc1OC (stereo not given)
i	0.65&0.05	CC(C)Nc1cccnc1N1CCN(C(=O)c2cc3cc(NS(C)(=O)=O)ccc3[nH]2)CC1
i	-0.35	Cc1cc(-c2ccc3c(c2)CCN3C(=O)C2CCCO2)on1 (stereo not given)
i	-0.78	CN1CCN(S(=O)(=O)c2cc(-c3ccc(=O)[nH]n3)ccc2Cl)CC1
i	1.4	O=C(c1cc2cc(Cl)ccc2[nH]1)N1CCN(c2ccc(=O)n(-c3ccc(F)cc3)n2)CC1
i	0.14	COc1c(C)cnc2c1c(=O)n(CC(=O)NC1CCCCC1)c(=O)n2C
i	-0.63	Cc1ccc(NC(=O)c2cnn3c(C)cc(C)nc23)cc1
i	1.1	Cc1ccccc1NC(=O)c1cc2c(CO)cnc(C)c2oc1=O
i	0.94	CC(C)Cc1cc(-c2nnc3sc(-c4cccs4)nn23)n[nH]1
i	1.2	O=c1c2scc(-c3ccc(F)cc3)c2ncn1Cc1ccccn1
i	0.72	COc1ccc(-c2noc(N3CC=C(c4ccccc4)CC3)n2)cc1
i	1	O=C(Oc1ccc2cnccc2c1)c1cn(-c2ccccc2)c(=O)c2ccccc12
i	-0.88	O=C1CCCc2c1c(Nc1ccc(F)cc1)nn2-c1ccccc1
i	0.24	CC(C(=O)O)c1ccc(C(=O)c2ccccc2)s1 (stereo not given)
i	0.48	COC(=O)c1ccc(NC(=O)N2CCOc3ccc(COCc4ccccc4Cl)cc3C2)cc1

Of the compounds above, 2 contain a furan ring, fused or not:
Anaer choline gr	Anaer choline gr early	canonical_smiles
i	0.01	CC(C)(CO)NCc1ccc(-c2ccccc2F)o1
i	0.37	O=C(NCCc1cscn1)[C@H]1CSCN1C(=O)c1ccc(Br)o1
